Screens: PubChem, National Center for Advancing Translational Sciences (NCATS)
gsp antagonist = gsp mutant antagonism. gsp-mutant cells, cAMP HTRF, 30 min; control for the full effect not named in the record. Potency, µM (series often up to 76.9 µM), inactives show top-dose activity change, negative = inhibition, hits mostly inhibitors. 340,000 tested, 0.4% active; active = falling curve of any shape with a large fitted effect; inconclusive = falling curve, mostly with a smaller effect; inactive = flat or rising curve; cell line not stated here;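 note: intracellular cAMP measured with PDE inhibitor Ro 20-1724 present during compound exposure; potency is the fitted concentration of half-maximal effect; % is set by controls: 0 for no effect and ±100 for the full control effect; nearly all actives have a fitted effect of over 65% in size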
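G418-selected cells were plated in DMEM/10% FBS for 16-24 h at 37C, then treated with compounds plus the PDE inhibitor […] (300 uM solution added) for 30 min at 37C. Intracellular cAMP was measured by HTRF after 30 min lysis at room temperature.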
ClpP mod = qHTS Assay for Activators of ClpP; Potency, µM (titrated, usually from 57.5 µM), inactives show at the top dose activity change, negative = active; purified B. subtilis ClpP, FRET peptide cleavage, 20 min; 340,000 tested, 1.9% active; active = well fitted falling curve with a large enough effect; inconclusive = small, poorly fitted or top-dose-only effect; inactive = no such curve, though single readings can be large or run the other way; note: potency is the fitted concentration of half-maximal effect; the source files actives as falling curves though it sought activators and does not explain the sign; nearly all actives have a fitted effect of over 65% in size; many hits overshoot -100%
Target sequence (P80244 whole entry, looked up): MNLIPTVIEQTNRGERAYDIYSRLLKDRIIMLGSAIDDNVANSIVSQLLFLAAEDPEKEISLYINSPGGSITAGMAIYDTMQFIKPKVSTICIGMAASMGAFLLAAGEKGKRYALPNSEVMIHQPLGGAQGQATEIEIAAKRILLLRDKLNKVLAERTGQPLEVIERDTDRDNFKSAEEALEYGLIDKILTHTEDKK
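Buffer: 100 mM Tris/HCl pH8, 100 mM KCl, 0.05% low protease BSA, 2.5% glycerol, 0.01% Tween-20. ClpP 10 microg/mL final; 20 min RT; delta FRET normalized to ADEP and DMSO controls.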
gsp ag = activates gsp, the McCune-Albright syndrome mutation. gsp mutant cells, cAMP HTRF, 30 min; control for the full effect not named in the record. AID 624287. 340,000 tested, 0.13% active. Potency, µM (titrated, usually from 76.9 µM), inactives show at the highest dose activation (cAMP increase), actives largely listed as activators; active = well fitted activation curve with a large enough effect; inconclusive = small, poorly fitted or top-dose-only effect, or another doubt; inactive = no such curve, though single readings can be large or run the other way; cell line not stated here;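 note: phosphodiesterase inhibitor Ro 20-1724 added with compounds to block cAMP breakdown; potency is the fitted concentration of half-maximal effect; nearly all actives have a fitted effect of over 60% in size; about a fifth of the inactives were tested at one dose only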
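Cells stably selected in G418 were plated at 2000/well, grown 16-24 hr, then given compounds in DMSO with the PDE inhibitor […] (300 uM solution added) for 30 min at 37C; cAMP was read by HTRF.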
TRPV1 potentiator = enhances activation of the human vanilloid receptor TRPV1; TRPV1-expressing cells, Fluo-8 calcium influx, capsaicin EC20 potentiation; host cell line not named in the record; control for the full effect not named in the record; potentiation, % at 8.33 µM; 320,000 tested, 0.02% active; AID 540277; active means potentiation above 80%; inconclusive means 30% to 80%; inactive means below 30%; note: 0% is about no effect
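Fluo-8 calcium influx in TRPV1-expressing cells, kinetic read (ex 480/em 520 nm). Compound added and read 3 min for agonist activity, followed by capsaicin at EC20 final and 2 min further read for enhancement.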
TRPML1 inh = inhibitors of human TRPML1 channel; 390,000 tested, 0.02% active; TRPML1-inducible cells, Ca2+ dye fluorescence, FDSS; stronger effect = lower value; inhibition of EC80 agonist-evoked calcium signal; Q9GZU1; activity change, negative = inhibition, % (concentration not given with the values); in the data active means activity change below about -50%; inconclusive means about -30% to -50%; inactive means above about -30%;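 note: stimulus is agonist 54-4 at its EC80 concentration; % is set by controls: 0 for no effect and ±100 for the full control effect; compound concentration not given in the record; the text of the record puts the active cut at -80%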
Target sequence (Q9GZU1 whole entry, looked up): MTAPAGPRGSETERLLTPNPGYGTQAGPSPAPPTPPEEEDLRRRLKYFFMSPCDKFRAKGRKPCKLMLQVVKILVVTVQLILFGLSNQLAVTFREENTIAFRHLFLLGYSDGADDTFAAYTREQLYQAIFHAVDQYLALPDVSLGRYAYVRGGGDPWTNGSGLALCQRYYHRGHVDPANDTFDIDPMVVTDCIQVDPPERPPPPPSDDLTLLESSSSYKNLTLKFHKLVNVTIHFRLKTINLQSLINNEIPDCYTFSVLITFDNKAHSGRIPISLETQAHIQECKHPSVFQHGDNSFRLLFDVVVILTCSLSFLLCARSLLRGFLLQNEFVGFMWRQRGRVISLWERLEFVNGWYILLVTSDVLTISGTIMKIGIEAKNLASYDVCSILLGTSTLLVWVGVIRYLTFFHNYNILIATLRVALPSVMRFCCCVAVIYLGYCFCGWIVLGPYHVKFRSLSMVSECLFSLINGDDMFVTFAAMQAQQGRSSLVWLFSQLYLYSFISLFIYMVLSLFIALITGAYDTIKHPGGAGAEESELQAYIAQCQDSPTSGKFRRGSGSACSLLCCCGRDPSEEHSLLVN
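Calcium fluorescence in TRPML1-DL cells induced overnight with Tet: a 110 s read after compound pin addition, then a 110 s antagonist read after challenge with 54-4 at 4 uM final (EC80).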
Sfp PPTase inh = blocks B. subtilis Sfp PPTase activity | Biochemical Sfp PPTase activity, qHTS | Potency, µM, for the others: max response, negative = inhibition, hits mostly inhibitors | 310,000 tested, 3.5% active; active = well fitted inhibition curve with a large enough effect; inconclusive = small, poorly fitted or top-dose-only effect, or another doubt; inactive = no such curve, though single readings can be large or run the other way;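 note: the enzyme is Sfp with the accession as filed and its product quenches rhodamine fluorescence; potency is the fitted concentration of half-maximal effect; 0% = enzyme reaction without inhibitor and -100% = no enzyme wells; top concentration of the series not given in the record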
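Compounds were incubated with enzyme (final 15 nM) for 15 min at room temperature before substrate addition started the reaction. Fluorescence at 525 nm excitation, 598 nm emission was recorded immediately and after 30 minutes.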
Menin MLL FP FL = displaces fluorescein MLL peptide from human menin | Fluorescence polarization, fluorescein-MLL peptide displacement from menin | FP activity change, % at 61.4 µM | 290,000 tested, under 10 active | AID 1766; inconclusive = falling polarisation curve, or a change in total fluorescence; inactive = total fluorescence flat and polarisation flat or rising; no compound was filed as active; the % refers to the polarisation; negative = inhibition;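 note: % of control where 0% means no effect; inhibitors lower the polarisation; unlabelled MLL peptide was the positive control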
* hit, by the source's call; ? = inconclusive; / = not tested or not shown; & = joins results of further samples; [ ] = dose if it differs, or a comment. These rows are one share of the data; count on the stated rates, not on these rows.

SMILES | gsp antagonist | ClpP mod | gsp ag | TRPV1 potentiator | TRPML1 inh | Sfp PPTase inh | Menin MLL FP FL
CCCCn1c(NS(=O)(=O)c2ccc(C)cc2)c(C(=O)OCC)c2nc3ccccc3nc21 | 0.1% | 160.6% | 6.0% | 3.8 | 14.6 | -0.4% | 3.0
O=C(C[N+]12CCN(CC1)CC2)NCCc1ccc(Cl)cc1Cl | 5.9% | / | 24.3% | -2.0 | -12.8 | 0.8% | 0.2
CCOC(=O)C(NC(=O)CC)(Nc1ccc(C(O)(C(=O)OCC)C(F)(F)F)cc1C)C(F)(F)F (stereo not given) | -6.0% | 1.4% | ? | -2.0 | 39.3 | 9.4% | 1.2
NC(=O)c1c(Br)n(C2OC(CO)C(O)C2O)c2ncnc(N)c12 (stereo not given) | -1.3% | 0.4% | 3.4% | / | 19.4 | / | /
Cc1ccc2c(c1)NP(=S)(Oc1ccccc1)N2 (stereo not given) | 8.5% | 1.9% | -0.9%[15.4 µM] | / | -9.5 | / | /
CCc1c(C)nc(N)nc1N1N=C1SC | 0.2% | -4.9% | 10.0% | -11.8 | 1.8 | 0.0% | 0.7
CCC(CO)(C(=O)OC1C[N+]2(C)CCC1CC2)c1ccccc1 (stereo not given) | 14.8% | / | -1.2%[15.4 µM] | -8.0 | -6.9 | -0.9% | -5.4
Cc1ccc(CN2CCCN(Cc3ccc(C)cc3)S2(=O)=O)cc1 | -2.2% | -14.3% | 19.9% | 5.6 | 70.0 | 0.3% | 0.6
CCCCn1c(O)c(C(CC)=NCCCn2ccnc2)c(=O)[nH]c1=O | -11.2% | -1.8% | -6.4% | -6.5 | 22.3 | 23.0% | 1.2
Cc1cc(Br)c(NC(=O)CN2CC=C(c3ccccc3)CC2)c(Br)c1 | 0.1% | / | -5.6% | -0.7 | -6.9 | -28.1% | 0.6
Cc1ccccc1NS(=O)(=O)c1ccc(OCC(=O)N2CCN(C)CC2)cc1 | 13.6% | 0.8% | -0.7%[15.4 µM] | 10.0 | 0.7 | 11.4% | /
CCCNc1nc(OC)nc(N2CC3CC(C2)c2cccc(=O)n2C3)n1 (stereo not given) | 2.1% | -24.7% | 4.6% | 3.8 | 12.9 | 21.7% | -7.0
CCCCn1c(=O)c(C(=O)NCc2ccccc2OC)c(O)c2ccccc21 | 5.2% | -19.5% | 0.9% | 9.5 | -10.4 | 1.6% | 0.1
CCC(CC)C1C(C#N)=C(N)Oc2c1c(=O)oc1ccccc21 (stereo not given) | ? | 34.3% | -27.3% | -7.2 | 32.7 | 9.5% | 5.2
Cc1ccc(OP(=O)(NCc2ccccc2)Oc2ccc(C)cc2)cc1 | -9.1% | ? | -63.6%[inhibitor] | -15.9 | -0.7 | -24.9% | 3.3
CN1CN(c2ccccc2)C2(CCN(CCCSc3ccccc3NC(=O)/C=C/c3ccccc3)CC2)C1=O | -19.8% | -4.4% | -0.7% | / | -22.2 | / | /
Cc1ccc(Cn2cc(C=O)c3ccccc32)cc1 | -3.1% | / | -11.3%[15.4 µM] | -0.4 | 25.9 | 5.7% | -7.1
O=c1[nH]c(=O)n(Cc2ccccc2Cl)c(O)c1/C=C1/C=CC=N1 | -9.1% | / | -61.5%[inhibitor] | -2.2 | 10.8 | -5.2% | 13.9
CCCNC(=O)N1[C@H]2CC[C@@H]1C(C(=O)OC)=C(c1ccc(OC(F)(F)F)cc1)C2 | -8.2% | -0.6% | / | -16.0 | -7.1 | / | /
CCOC(=O)N1CCN(c2ccc(Cl)c(Cl)c2)CC1 | ? | -0.6% | 35.3% | -3.7 | -4.3 | 5.3% | 2.8
CC(C(O)c1ccccc1)N(C)CCn1cnc2c1c(=O)n(C)c(=O)n2C (stereo not given) | 12.1% | / | 10.5%[15.4 µM] | 0.7 | 1.0 | 6.0% | 5.0
CCCCCCCCn1sccc1=O | -19.2% | 0.2% | / | -12.0 | -0.8 | / | /
CCCN1CCCC(C(=O)c2cc(C)c(OC)c(C)c2)C1 (stereo not given) | -11.8% | -1.7% | 0.0%[15.4 µM] | -5.1 | 4.6 | -1.1% | 0.6
CC(C)(C)n1cc(C(=O)c2ccccc2)cc1-c1ccccc1 | -4.2% | 1.4% | 1.5% | 10.1 | -18.9 | 10.1% | 0.1
O=c1c2ccccc2nc(/C=C/c2ccco2)n1-c1ccccc1O | -17.4% | 0.0% | -0.3% | -20.8 | -6.4 | 10µM* | ?
SMILES | gsp antagonist | ClpP mod | gsp ag | TRPV1 potentiator | TRPML1 inh | Sfp PPTase inh | Menin MLL FP FL
CS(=O)(=O)c1ccc(C2=C(CNC(=O)c3nccs3)[C@H]3CC[C@@H](C2)N3CCOc2ccccc2)cc1 | / | -0.5% | -44.1%[inhibitor] | / | -10.5 | / | /
NC(N)=Nc1ccc2[nH]c3c(c2c1)C[C@@]1(O)[C@H]2Cc4ccc(O)c5c4[C@@]1(CCN2CC1CC1)C3O5 (stereo not given in full) | -13.2% | 0.8% | / | / | 6.9 | / | /
CSCCC(NC(=O)CCC(=O)OC1CC[C@H]2[C@@H]3CC[C@H]4CC(=O)CC[C@]4(C)[C@H]3CC[C@]12C)C(=O)O (stereo not given in full) | -10.3% | -0.5% | -0.6% | 11.8 | 32.7 | 3.3% | 4.4
COc1ccc(CNCCc2cccc(F)c2)c2ccccc12 | / | / | / | 2.3 | / | ? | -5.5
O=C(O)C1=CC2c3ccccc3C1c1ccccc12 | ? | 0.3% | -2.4%[15.4 µM] | 3.7 | 8.1 | 14.6% | -2.8
Cn1c(O)c(C=NCCN2CCN(C(=O)c3ccccc3)CC2)c(=O)n(C)c1=O | 8.1% | 1.2% | -30.1% | -4.8 | -5.8 | -15.1% | -1.1
CC1C(OC(=O)CCC(=O)NC(C)(C)CO)O[C@H]2OC3(C)CC[C@H]4[C@H](C)CCC1C24OO3 (stereo not given in full) | 1.3% | / | ? | 5.3 | 12.3 | 7.7% | 4.9
CCC1(Oc2ccccc2)C(=O)NC(=O)NC1=O | 1.0% | / | 4.0% | / | 5.4 | / | /
CCCCNC(=S)N1CCn2cccc2C1c1cccnc1 (stereo not given) | 4.0% | -23.2% | -6.1%[15.4 µM] | -13.0 | -6.7 | 4.8% | -4.0
Cc1ccc(S(=O)(=O)CC(C)(O)C(=O)Nc2cccc(C(F)(F)F)c2)cc1 (stereo not given) | 1.9% | -2.5% | ? | / | -3.4 | 13.6% | -1.6
CN1C(=O)C(c2ccc([N+](=O)[O-])cc2[N+](=O)[O-])C(=O)N(C)C1=O | 9.8% | -1.1% | 3.1% | 13.4 | -20.5 | 7.9% | 3.8
CCc1ccc(CNn2cnnc2SCC(=O)NC(C)(C)C)cc1 | -6.1% | 0.3% | -51.0%[inhibitor] | 6.0 | -10.2 | 7.8% | 4.3
CC1CCN(CC(=O)c2ccc3c(c2)OCCO3)CC1 | -6.0% | -0.5% | 0.5%[15.4 µM] | -2.3 | -1.3 | ? | 0.5
FC(F)(F)c1ccccc1N1CC1c1ccncc1 (stereo not given) | 9.5% | -0.9% | 15.7% | -1.4 | 18.0 | 14.6% | -4.3
CSCCC(N=Cc1c(O)n(-c2ccc(F)cc2)c(=O)[nH]c1=O)C(=O)OC(C)(C)C (stereo not given) | -2.8% | -1.1% | -0.5% | 6.6 | 17.1 | 5.8% | -2.6
CCOC(=O)[C@]12Cc3cc(OC)ccc3[C@H]1N(Cc1ccccc1)C(=O)c1ccccc12 | ? | -5.2%&-6.1% | 2.7% | / | 11.8 | / | /
Cc1ccc(S(=O)(=O)N2CCCCC2)cc1NC(=O)CN1CC=C(c2ccccc2)CC1 | -25.6% | -9.8% | -25.4% | 29.7 | -4.1 | 19.4% | /
CNCCc1c(C)n[nH]c1C | 6.8% | -2.3% | -45.2%[inhibitor] | -2.5 | 25.1 | 14.2% | -1.6
CC(C)CCn1c(N)c(C(=O)OCC2CCCO2)c2nc3ccccc3nc21 (stereo not given) | -0.4% | 15.1% | ? | -12.6 | 36.3 | 5.3% | 5.4
CCN(CC)C(=O)c1ccc(NC(=O)c2sccc2-c2ccccc2)cc1 | -9.3% | -8.0% | ? | 0.2 | 42.2 | -0.5% | -0.7
O=c1c2ccccc2nc(Cc2cccc([N+](=O)[O-])c2)n1-c1ccc(O)cc1 | -8.6% | / | -5.2%[15.4 µM] | 5.0 | -1.1 | 13.7% | 1.0
CCOC(=O)C(O)(c1cn(C)c2ccccc12)C(F)(F)F (stereo not given) | -0.5% | -13.8% | -29.1% | 2.6 | -7.9 | 8.9% | -2.4
COc1cc2c3cc1Oc1c(OC)c(OC)cc4c1[C@H](Cc1ccc(cc1)Oc1cc(ccc1O)C[C@H]3N(C)CC2)N(C)CC4 | 7.4% | 1.3% | -11.3% | / | -6.3 | / | /
CCOc1cc(C=C2C(=O)NC(=S)NC2=O)ccc1O | -6.1% | / | -17.2% | / | -6.2 | / | /
COc1ccc(C(C)=O)cc1Cc1c(O)[nH]c(=S)[nH]c1=O | 0.3% | -0.1% | ? | -3.5 | -5.6 | 50.1µM* | -8.8
SMILES | gsp antagonist | ClpP mod | gsp ag | TRPV1 potentiator | TRPML1 inh | Sfp PPTase inh | Menin MLL FP FL
C[C@]12CCC3C(CC[C@H]4C[C@H](O)CC[C@]34C)C1C[C@H](O)[C@H]2O (stereo not given in full) | 0.6% | / | -31.3%[inhibitor] | / | 10.0 | / | /
CC(C)(C)[C@]1(O)C[C@@H]2OC(=O)C[C@@]23C(=O)O[C@@H]2OC(=O)[C@H](O)[C@]213 | 19.1% | 0.2% | / | 2.8 | -13.8 | -15.9%&15.2%&5.0% | ?
O=c1[nH]c(=O)n(Cc2ccccc2)c(O)c1C=NCCN1CCOCC1 | 4.9% | -1.1% | 4.1% | 4.2 | -3.9 | -10.8% | 7.2
O=[N+]([O-])c1ccc(N2CCNCC2)c(Cl)c1 | 9.0% | 3.3% | -2.9%[15.4 µM] | -8.7 | 6.1 | 14.2% | -9.6
CN1CCN(S(=O)(=O)c2cnc(Cl)c(Br)c2)CC1 | -2.6% | 0.8% | -42.8%[inhibitor] | 5.5 | -15.4 | -10.3% | -3.3
C=CCn1c(=O)c(C=Nc2cccc([N+](=O)[O-])c2)c(O)n(CCCC)c1=O | -36.6% | 1.4% | -25.4% | 10.0 | -7.0 | -14.8% | ?
COc1ccc(N2C(=O)NC(=O)/C(=C\c3cn(C)c4ccccc34)C2=O)cc1 | -4.0% | 1.8% | -9.1% | -7.1 | -17.3 | -13.2% | ?
CCc1ccc(CNCCc2c[nH]c3ccccc23)cc1 | 13.5% | 0.5% | -47.5% | ? | / | -21.8% | -0.8
